# Rce1 inhib = blocks yeast Ras-converting enzyme; Q03530; yeast membranes, quenched prenylated peptide cleavage fluorescence; calls only; 290,000 compounds, 0.27% hits;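 active means fall in fluorescence gain of 50% or more versus controls, with final raw signal at or below 3038400; inconclusive means same 50% fall but final raw signal above 3038400; inactive means fall in fluorescence gain under 50%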;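 further: plate controls were neutral control wells for no effect and wells lacking membranes for full effect; tested at 10 µM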
# PABP FP inh = PABP-poly(A) binding inhibition; P11940; PABP-poly(A) RNA binding, fluorescence polarization; inhibition, % at 35 µM; 290,000 compounds, 1% hits;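 active means 50% or more with normal probe brightness, or confirmed in later tests; inconclusive means above 50% with abnormal brightness, or retests that disagree; inactive means below 50% or failed in later tests; about a fifth of its hits are not listed in these tables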;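 further: calls also rest on retests at 20 µM and on dose response follow-up; controls were probe without protein and protein plus probe with vehicle; some compounds called inactive have numbers as strong as hits; many hits fall short of the cut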
# Target sequence (P11940 whole entry, looked up): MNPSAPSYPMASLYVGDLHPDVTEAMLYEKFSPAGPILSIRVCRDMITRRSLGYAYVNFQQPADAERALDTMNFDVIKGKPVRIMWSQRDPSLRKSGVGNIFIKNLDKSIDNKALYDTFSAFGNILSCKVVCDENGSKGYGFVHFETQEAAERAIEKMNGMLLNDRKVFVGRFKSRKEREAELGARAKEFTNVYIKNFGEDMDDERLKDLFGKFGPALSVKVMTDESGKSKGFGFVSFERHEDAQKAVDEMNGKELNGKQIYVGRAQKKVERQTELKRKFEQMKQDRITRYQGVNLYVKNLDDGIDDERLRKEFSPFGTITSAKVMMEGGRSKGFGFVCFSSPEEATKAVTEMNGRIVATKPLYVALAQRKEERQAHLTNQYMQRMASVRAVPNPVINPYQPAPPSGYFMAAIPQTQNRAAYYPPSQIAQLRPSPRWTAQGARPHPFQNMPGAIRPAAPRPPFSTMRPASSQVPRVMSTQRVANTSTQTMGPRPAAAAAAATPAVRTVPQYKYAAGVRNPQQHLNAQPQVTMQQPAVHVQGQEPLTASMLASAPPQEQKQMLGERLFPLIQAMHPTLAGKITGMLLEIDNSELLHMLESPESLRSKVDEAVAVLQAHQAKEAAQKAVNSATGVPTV
# MT1-MMP act inh = MT1-MMP (human) activation inhibition; P50281; HT1080 RFP-PRO-GFP cells, GFP/RFP ratio fluorescence, overnight; percent of plate control window, DMSO zero; GFP/RFP ratio change, % at 20 µM; 360,000 compounds, 0.061% hits; AID 651647;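 active means GFP/RFP ratio change of at least 30% with cell ATP level not reduced by more than half and red fluorescence within 50% of control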; further: strong numbers were not always called active
#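 Compound: 20 µM single dose, 1% DMSO / System: HT1080 RFP-PRO-GFP cells / Controls: DMSO and RFP-L50D-GFP cell wells / Read-out basis: GFP/RFP fluorescence ratio / Schedule: overnight compound exposure at 37 °C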
# CSC inhib = blocks cancer stem cells. cancer stem cell-like cells viability, luminescence. inhibition, % at 7.5 µM. 300,000 compounds, 1.1% hits. AID 2717;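 active means mean at 75% or more and at least half the replicates too; inconclusive means mean and replicates disagree; tested in HMLE shEcad cells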;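 further: 0% = median of negative and 100% = median of positive control wells; the first replicate is given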
# Yeast UUG start = alters start codon recognition fidelity in yeast; S. cerevisiae UUG-firefly luciferase reporter, luminescence/redox ratio; activity score, % at 18.7 µM; 350,000 compounds, 0.13% hits;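 active means replicate mean at a twofold rise or more, about +100% in these data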;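 further: firefly luciferase made from a UUG start codon reports start codon fidelity; reporter light over untreated wells divided by growth signal over untreated wells; some hits fall short of that in this replicate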
# eIF4H inh = inhibitors of RNA binding by human eIF4H; inhibition, % at 35 µM; AID 2012; 290,000 compounds, 0.94% hits; Q15056; eIF4H fluorescence polarization binding assay;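 active means 50% or more with normal probe brightness, or confirmed in later tests; inconclusive means above 50% with abnormal brightness, or retests that disagree; inactive means below 50% or failed in later tests; about a fifth of its hits are not listed in these tables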;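 further: calls also rest on retests at 20 µM and on dose response follow-up; 0% = protein and probe with vehicle and 100% = probe without protein; strong numbers were not always called active; many hits fall short of the cut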
# Env fusion inh = HIV envelope-mediated fusion inhibition; inhibition, % at 12.3 µM; HeLa-JRFL Env/CEM21 cell fusion, luciferase; 360,000 compounds, 1.1% hits; AID 651610;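 active means mean replicate inhibition score of at least 50 and every replicate individually at or above 50; inconclusive means only one of the two criteria met; inactive means mean below 50 and not all replicates reaching 50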;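 further: 0% = plate neutral controls and 100% = maraviroc near 300 nM; one replicate is shown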
# MT1-MMP act inh RFP = recorded beside MT1-MMP act inh, whose call it bears; RFP signal change, %; measured here: RFP expression control read;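 0 = vehicle wells; hits needed this value within 50% of zero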
# The depositor's hits bear a star; i = inactive; u = inconclusive; x = no result given. A portion of the library (hit frequency here may not be typical).
SMILES,Rce1 inhib,PABP FP inh,MT1-MMP act inh,MT1-MMP act inh RFP,CSC inhib,Yeast UUG start,eIF4H inh,Env fusion inh
O=C(NNC(=O)C1CC(=O)N(Cc2ccccc2)C1)c1ccc(Br)cc1 (stereo not given),i,1,-4,-1,-3,-11,-7,9
CC(=O)OCC(=O)Nc1ccc(Cl)cc1Cl,i,-12,0,1,x,-20,1,x
O=C(NN=Cc1ccc(N2CCOCC2)s1)c1ccc([N+](=O)[O-])cc1,x,x,4,2,-10,-34,x,x
Cc1ccc(S(=O)(=O)NCc2ccc(C(=O)NC3CCC(C)CC3)cc2)cc1 (stereo not given),i,14,0,-2,-8,-15,-10,-1
Cc1cc(N2CCN(C3CCCC3)CC2)n2c(nc3ccccc32)c1C#N,i,9,22,2,-17,x,5,-9
O=C(O)c1ccc(NC(=O)c2cccc(N3C(=O)C4C5CCC(C5)C4C3=O)c2)cc1 (stereo not given),i,0,7,3,-13,-14,1,x
Cc1ccc(NC(=S)N(CCN2CCCCC2)Cc2ccco2)cc1Cl,i,20,1,3,-4,-22,-12,12
COc1ccccc1C(=O)NCCCn1cc(Br)c(C)n1,i,-4,6,-1,-8,7,-6,x
C=CCn1c(SCC(=O)Nc2cc(C)on2)nnc1-c1ccccc1OC,x,x,-1,1,-12,-16,x,x
Clc1ccccc1C1=CC(c2ccco2)n2ncnc2N1 (stereo not given),i,0,-12,2,3,x,-9,0
O=C(O)c1ccc(NC(=O)c2cccs2)cc1,i,-3,5,2,-5,x,0,-101
O=C(NCc1ccccc1)C1CCCN(S(=O)(=O)c2cccc3nsnc23)C1 (stereo not given),i,4,-6,-6,-10,-9,-17,6
COc1cccc(-n2c(SCC(=O)NCCc3ccccc3)nnc2-c2ccoc2C)c1,i,-5,-4,-8,x,17,12,24
FC(F)(F)c1cnc(/C=C/Nc2ccccc2Cl)c(Cl)c1,i,-2,-79,6,6,3,-4,1
COc1ccc(CCNC(=O)c2cc3c(=O)n4ccccc4nc3n(CCCN3CCOCC3)c2=N)cc1OC,i,5,5,5,5,22,-7,-12

# Filtered by structure, the entries above with a COOH group.
SMILES,Rce1 inhib,PABP FP inh,MT1-MMP act inh,MT1-MMP act inh RFP,CSC inhib,Yeast UUG start,eIF4H inh,Env fusion inh
O=C(O)c1ccc(NC(=O)c2cccc(N3C(=O)C4C5CCC(C5)C4C3=O)c2)cc1 (stereo not given),i,0,7,3,-13,-14,1,x
O=C(O)c1ccc(NC(=O)c2cccs2)cc1,i,-3,5,2,-5,x,0,-101

# 4 entries drawn at random from those above, as already listed:
SMILES,Rce1 inhib,PABP FP inh,MT1-MMP act inh,MT1-MMP act inh RFP,CSC inhib,Yeast UUG start,eIF4H inh,Env fusion inh
O=C(NNC(=O)C1CC(=O)N(Cc2ccccc2)C1)c1ccc(Br)cc1 (stereo not given),i,1,-4,-1,-3,-11,-7,9
O=C(O)c1ccc(NC(=O)c2cccc(N3C(=O)C4C5CCC(C5)C4C3=O)c2)cc1 (stereo not given),i,0,7,3,-13,-14,1,x
Clc1ccccc1C1=CC(c2ccco2)n2ncnc2N1 (stereo not given),i,0,-12,2,3,x,-9,0
Cc1ccc(NC(=S)N(CCN2CCCCC2)Cc2ccco2)cc1Cl,i,20,1,3,-4,-22,-12,12

# (cont.)
SMILES,Rce1 inhib,PABP FP inh,MT1-MMP act inh,MT1-MMP act inh RFP,CSC inhib,Yeast UUG start,eIF4H inh,Env fusion inh
Cc1ccc(-c2nc(SCC(=O)NCCN3C(=O)CSC3=O)[nH]c2-c2ccc(C)cc2)cc1,i,2,x,x,-10,x,-10,x
COc1ccc(C(=O)NCCC2=CCCCC2)cc1,i,-14,5,1,-2,-50,-3,4
Cc1ccc(OCCN2CCCCCC2)c(C)c1,i,6,-1,6,5,-18,-2,x
NC(=O)C1CCN(CC(=O)N2c3ccccc3CCc3ccccc32)CC1,i,4,2,4,21,-9,-4,-51
CCOc1ccc(C(=O)Nc2cccc3ncccc23)cc1Cl,i,-2,2,-8,3,-3,3,-2
CCOC(=O)c1c(C=O)c(C)n(Cc2ccc(Cl)cc2)c1C,i,-2,-4,-5,0,x,-3,2
O=C(NNC(=O)c1ccccc1OCc1ccccc1Cl)c1csc(N2CCOCC2)n1,i,-4,6,1,x,-10,6,x
CC(C)CN1C(=O)C(=O)N(CC(=O)c2ccc[nH]2)C1=O,i,x,-2,1,5,x,x,3
CCOC(=O)c1nc(NNC(C)=O)sc1C,i,-8,-2,-1,-13,x,-8,11
COc1ccc(N=Nc2c(C)n[nH]c2C)cc1,i,-2,-1,1,-17,-7,0,-5
Cc1nc(-c2c(C(F)(F)F)noc2-c2ccc(O)cc2O)cs1,i,-11,4,-14,-1,-11,-4,x
Cc1ccc(CNC(=O)Cc2csc(Nc3nc(=S)[nH]c4ccccc34)n2)cc1,i,-8,x,x,-8,x,-10,x
CCC(=O)Nc1ccc(N2CCCCC2)cc1,i,8,4,1,16,-17,-8,x
Cc1ccc(S(=O)(=O)NCC23C=CC(O2)C2C(=O)N(c4ccccc4)C(=O)C23)cc1 (stereo not given),i,10,2,0,-24,12,0,x
CCc1c(C)nc(Nc2nc(C)c3cc(OC)ccc3n2)[nH]c1=O,i,8,8,-2,-5,-22,-2,x
Cc1cc(C)cc(NS(=O)(=O)c2ccc3c(c2)c(=O)n(C)c(=O)n3C)c1,i,10,-18,-16,102*,x,-1,x
Cn1c(=O)[nH]c(=O)c2c1[nH]c(=S)n2CCCc1ccccc1,i,15,-1,6,x,-20,0,11
O=C(COC(=O)CNC(=O)c1ccc([N+](=O)[O-])o1)Nc1ncc(C(F)(F)F)cc1Cl,x,x,4,-1,13,-14,x,x
COc1cccc2c(SCC(=O)N/N=C/c3ccccc3)cc(C)nc12,i,0,-15,-4,0,-21,-11,12
CCc1nc2ccc(C(=O)N3CCCCC3)cn2c1N(CCC(C)C)CCN(C)C,x,x,3,2,x,-12,x,-29
CNC(=O)CN1C(=O)CSc2ncccc21,i,-9,-2,4,-7,-21,11,-1
CCC(=O)N1CCN(c2ccccc2NC(=O)c2cccs2)CC1,i,1,-3,4,-5,-15,6,-14
CC(=O)N[C@@H](Cc1c[nH]c2ccccc12)C(=O)OCc1ccc(C#N)cc1,i,0,1,2,16,-6,-3,-3
O=C(COc1ccccc1)NC(=S)N1CCc2ccccc21,i,5,3,1,-19,x,4,-6
O=C(CCNC(=O)Cn1cnc2ccccc2c1=O)NCC1CCCO1 (stereo not given),i,-6,-5,1,-13,-6,-5,8
Cc1ccccc1N/C(=C(/C(Cl)=C(Cl)Cl)[N+](=O)[O-])n1nnc2ccccc21,i,5,-4,6,17,-18,-3,x
O=C(Nc1nc(-c2ccccn2)cs1)c1ccc2c(c1)OCCO2,i,-1,6,-1,26,-8,14,-122
CCCCn1c(N)c(N(C(=O)CSc2nncn2-c2ccccc2)C2CCCC2)c(=O)[nH]c1=O,x,x,2,-2,x,-9,x,30
COCCN1C(=NCCCOC(C)C)N[C@@H](c2ccccc2)C(C(=O)OC)=C1C,i,x,-3,2,-17,11,x,23
CCCCCCOc1ccc(C(=O)n2cnc(N)n2)cc1,i,22,-4,3,4,-5,5,17

# Exported with each value named: 4 of the compounds above.
Molecule: CCc1nc2ccc(C(=O)N3CCCCC3)cn2c1N(CCC(C)C)CCN(C)C
  Rce1 inhib: x	PABP FP inh: x	MT1-MMP act inh: 3	MT1-MMP act inh RFP: 2	CSC inhib: x	Yeast UUG start: -12	eIF4H inh: x	Env fusion inh: -29
Molecule: CNC(=O)CN1C(=O)CSc2ncccc21
  Rce1 inhib: i	PABP FP inh: -9	MT1-MMP act inh: -2	MT1-MMP act inh RFP: 4	CSC inhib: -7	Yeast UUG start: -21	eIF4H inh: 11	Env fusion inh: -1
Molecule: CCC(=O)Nc1ccc(N2CCCCC2)cc1
  Rce1 inhib: i	PABP FP inh: 8	MT1-MMP act inh: 4	MT1-MMP act inh RFP: 1	CSC inhib: 16	Yeast UUG start: -17	eIF4H inh: -8	Env fusion inh: x
Molecule: CC(C)CN1C(=O)C(=O)N(CC(=O)c2ccc[nH]2)C1=O
  Rce1 inhib: i	PABP FP inh: x	MT1-MMP act inh: -2	MT1-MMP act inh RFP: 1	CSC inhib: 5	Yeast UUG start: x	eIF4H inh: x	Env fusion inh: 3

# (next part)
SMILES,Rce1 inhib,PABP FP inh,MT1-MMP act inh,MT1-MMP act inh RFP,CSC inhib,Yeast UUG start,eIF4H inh,Env fusion inh
c1ccc2c(c1)nc1n2CN(Cc2ccc3c(c2)OCO3)CN1,x,-1,-1,2,-10,-18,-9,-43
CC(=O)c1c(C)n(-c2ccc(N(C)C)cc2)c2ccc(OCC(N)=O)cc12,i,-2,2,-13,-18,5,-5,x
COc1ccc(OCC(=O)N2CC3(C)CC2CC(C)(C)C3)cc1 (stereo not given),x,-8,2,1,-6,-7,-7,x
COc1ccc(Nc2nnc(C)c(=O)[nH]2)cc1,i,12,0,0,-10,-5,4,-47
CC(C)CCNC(=O)CN(CC1CCCO1)C(=O)CCC(=O)Nc1ccccn1 (stereo not given),i,3,3,2,-20,-8,-8,x
O=C(NC1CC1)c1ccc(Cl)c(S(=O)(=O)N2CCOCC2)c1,i,9,-1,-2,-7,-14,-2,-12
O=C(NCc1ccco1)c1ccccc1SCC(=O)N1CCCC1,x,x,0,3,-7,-1,x,x
CCOc1ccccc1OCC(=O)N/N=C(\C)Cc1ccc(OC)cc1,i,0,-10,2,30,x,8,x
CCc1nccn1-c1cc(C(C)(C)C)nc2c(-c3ccc(Cl)cc3)cnn12,i,-18,-1,3,4,x,-1,-34
Cc1c2cnn(CC(=O)NCCCN3CC(C)CC(C)C3)c(=O)c2c(C)n1Cc1ccc(Cl)cc1 (stereo not given),i,10,x,x,12,1,-3,6
CN(C)C(=O)N1CCCC(C(=O)NCc2ccccc2Cl)C1 (stereo not given),i,6,1,8,-12,x,-4,x
CC1CCCCC1NC(=O)CN1CCC(NC(=O)C(C)(C)C)CC1 (stereo not given),x,x,3,3,x,-13,x,17
Cc1nc2c(C(=O)NCc3cccs3)cnn2c(C)c1Cc1ccc(F)cc1,i,3,x,x,-10,x,4,-10
O=C(COc1ccccc1Cl)Nc1cc(NC(=O)COc2ccccc2Cl)cc(C(=O)O)c1,i,8,6,0,x,-12,14,15
CC1CCN(C(=O)C2CCN(S(=O)(=O)c3cccc4nsnc34)CC2)CC1,i,-16,1,1,-4,x,-9,3
Cc1nc(SCC(=O)Nc2ccc(OCc3ccccc3)cc2)n[nH]1,i,3,3,4,-18,-17,-8,-12
O=C(COc1cc(O)c2c(=O)cc(-c3ccccc3)oc2c1)c1cccc([N+](=O)[O-])c1,i,-14,2,2,27,-6,-4,-13
COc1ccc2cc(/C=N/NC(=O)c3ccc(CN(c4ccc(C)c(C)c4)S(C)(=O)=O)cc3)c(Cl)nc2c1,i,-15,7,2,68,-21,20,8
CC(=O)NCCc1nc2ccccc2n1Cc1ccccc1,i,-7,4,3,-1,0,8,-1
CCC(=O)Nc1ccc(C(=O)NNC(=O)c2ccc(C)cc2)cc1,i,11,0,5,-9,-10,7,5
Cc1nnc(NC(=O)CSc2nnc(Cc3cccn3C)n2C)s1,i,-11,1,4,-6,-3,-7,-49
CCN(CC)CCNC(=O)c1ccc(NC(=O)/C=C/c2ccc3ccccc3n2)cc1,i,32,-10,-1,46,-18,16,16
O=C(c1ccc2c3n(nc2c1)-c1ccccc1CO3)N1CCCCC1,i,12,2,3,u,-62,5,-73
Cc1ccc(C(=O)/C=C/Nc2cccc(O)c2)cc1,i,u,-83,4,5,-47,u,x
Cc1ccc(N2CCN(CC(O)COC3CCCCC3)CC2)cc1 (stereo not given),i,4,7,0,x,-6,1,-27
O=C(CC(=O)NC1CCCCC1)N/N=C/c1ccccc1Cl,i,5,-2,-4,-15,-18,-8,x
